MARV entry inh: blocks Marburg virus binding to or entry into cells; 300,000 tested, 1.8% active; Marburg virus pseudotyped entry inhibition, cell reporter; control for the full effect not named in the record; about a third of the inactives were read at about 46 µM; Potency, µM (top dose mostly 37.8 µM), for the others: top-dose activity change, negative = inhibition, usual class: inhibitors; active = well fitted inhibition curve with a large enough effect; inconclusive = small, poorly fitted or top-dose-only effect, or effect the other way; inactive = flat fitted curve, though single readings scatter; tested in HEK293 cells; about a fifth of its hits are not listed in these tables; further: on the % scale 0 is the no-effect control and ±100 the full control effect; luciferase read-out
LASV entry inh: inhibitors of Lassa virus binding or cell entry; AID 540256; Potency, µM (doses to about 37.9 µM), for inactives: at the top dose activity change, negative = inhibition, usual class: inhibitors; 300,000 tested, 1.2% active; Lassa virus pseudotype entry inhibition, cell reporter; control for the full effect not named in the record; active means well fitted inhibition curve with a large enough effect; inconclusive means small, poorly fitted or top-dose-only effect, or effect the other way; inactive means flat fitted curve, though single readings scatter; tested in HEK293 cells; further: on the % scale 0 is the no-effect control and ±100 the full control effect; nearly all actives have a fitted effect of over 50% in size; luciferase read-out
Cruzain inh Det: inhibitors of Trypanosoma cruzi cruzain with detergent; purified cruzain, Z-FR-AMC fluorescence, 0.01% Triton; Potency, µM, without a hit: max response, negative = inhibition, most hits filed as inhibitors; 200,000 tested, 0.43% active; active means well fitted curve in the direction sought with a large enough effect; inconclusive means small, poorly fitted or top-dose-only effect, or another doubt; inactive means no such curve, though single readings can be large; an effect the other way counts as inactive or inconclusive;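 further: plate controls were neutral wells for no effect and buffer without enzyme for full effect; nearly all actives have a fitted effect of over 40% in size; top concentration of the series not given in the record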
Target sequence (P25779 123-467 limits assumed): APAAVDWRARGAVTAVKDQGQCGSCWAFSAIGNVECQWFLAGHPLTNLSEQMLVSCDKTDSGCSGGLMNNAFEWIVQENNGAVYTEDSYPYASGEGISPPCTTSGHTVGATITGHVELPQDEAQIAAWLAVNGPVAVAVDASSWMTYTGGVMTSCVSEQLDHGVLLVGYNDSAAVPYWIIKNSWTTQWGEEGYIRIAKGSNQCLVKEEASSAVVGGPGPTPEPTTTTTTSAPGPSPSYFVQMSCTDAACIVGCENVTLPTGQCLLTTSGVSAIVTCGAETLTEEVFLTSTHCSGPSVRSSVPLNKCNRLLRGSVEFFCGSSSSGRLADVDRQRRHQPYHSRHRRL
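Read-out: AMC fluorescence (360 nm excitation, 450 nm emission), four reads over 2 min, first-to-third difference used. Conditions: cruzain 1.5 nM, Z-FR-AMC 2 uM, pH 5.5 acetate, 5 mM DTT, 0.01% Triton X-100.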
Cruzain noTriton: inhibitors of Trypanosoma cruzi cruzain without detergent; P25779; purified cruzain, Z-FR-AMC fluorescence, no detergent; Potency, µM, inactives show max response, negative = inhibition, actives largely listed as inhibitors; 200,000 tested, 2.3% active; AID 1476; active means well fitted curve in the direction sought with a large enough effect; inconclusive means small, poorly fitted or top-dose-only effect, or another doubt; inactive means no such curve, though single readings can be large; an effect the other way counts as inactive or inconclusive;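 further: plate controls were enzyme without inhibitor for no effect and buffer without enzyme for full effect; nearly all actives have a fitted effect of over 40% in size; top concentration of the series not given in the record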
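Purified cruzain at 1.5 nM, pre-incubated 15 min with compound at room temperature in 100 mM sodium acetate pH 5.5, 5 mM DTT, 0.00005% Triton X-100. Reaction started with 2 uM Z-FR-AMC; AMC fluorescence increase over 60 s gives rate.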
RE007 growth inh: less growth of the S. pombe RE007 Vpr strain | 360,000 tested, 0.21% active | S. pombe RE007 Vpr strain, BacTiter-Glo ATP luminescence, 24 h; control for the full effect not named in the record | Potency, µM (highest dose often 92.2 µM), for the others: top-dose activity change, negative = less growth; active = well fitted falling curve with a large enough effect; inconclusive = small, poorly fitted or top-dose-only effect; inactive = no such curve, though single readings can be large or run the other way;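 further: on the % scale 0 is the no-effect control and ±100 the full control effect; nearly all actives have a fitted effect of over 50% in size; the assay follows cell death caused by Vpr and the record does not say whether a fall means rescue or toxicity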
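Fission yeast RE007 carrying one integrated HIV-1 vpr copy, seeded at OD 0.01 in PMG+AL medium with 23 nL pinned compound. Grown 24 h at 30 degrees; viability read by BacTiter-Glo luminescence after 5 min.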
StopGo reporter: lowers the luciferase signal of an FMDV 2A StopGo reporter; 410,000 tested, 1.2% active; human cells with a luciferase reporter of 2A StopGo recoding; control for the full effect not named in the record; Potency, µM (highest dose often 57.9 µM), for the others: at the top dose signal change, negative = less light; active = well fitted falling curve with a large enough effect; inconclusive = small, poorly fitted or top-dose-only effect; inactive = no such curve, though single readings can be large or run the other way; tested in HEK293T cells; further: on the % scale 0 is the no-effect control and ±100 the full control effect; nearly all actives have a fitted effect of over 45% in size; luciferase light after 4 h
NS1 function inh: influenza NS1 inhibition; S. cerevisiae slowed by influenza A NS1, growth recovery by OD600; Potency, µM (series often up to 46.1 µM), without a hit: top-dose activity, positive = more growth; 270,000 tested, 0.4% active; AID 2326; further: actives are rising curves; nearly all actives have a fitted effect of over 50% in size
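Read-out: OD600 growth recovery of NS1-expressing budding yeast. Cells grown overnight at 30C in -URA glucose medium, washed, resuspended and diluted 1:100 in 2% galactose assay medium, pH 6.0. Same strain lacking NS1 served as positive control.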
SARS PLP yeast: SARS-CoV PLP inhibition in yeast; S. cerevisiae expressing SARS-CoV PLpro, growth rescue; control for the full effect not named in the record; Potency, µM (series often up to 32.9 µM), for the others: at the top dose activity, positive = growth rescue; 330,000 tested, 0.19% active; AID 485353; further: 0% is about no effect; nearly all actives have a fitted effect of over 55% in size; growth read by luminescence after 48 h
Starred values were filed as active, the others as inactive; ? = inconclusive; nt = not tested or not shown; & = joins results of further samples; [ ] = dose if it differs, or a comment. Unless noted, the call rests on the fitted dose curve; in most records, active means well fitted rising curve with a large enough effect; inconclusive means small, poorly fitted or top-dose-only effect; inactive means no such curve, though single readings can be large or run the other way. Potency means the concentration at half of the fitted maximal effect.

SMILES	MARV entry inh	LASV entry inh	Cruzain inh Det	Cruzain noTriton	RE007 growth inh	StopGo reporter	NS1 function inh	SARS PLP yeast
CSc1nnc(SCC(=O)NC(=O)c2ccccc2)s1	14%	?	nt	nt	24%	10%	nt	5%
CCn1c(SCC(=O)OC2CCCCC2)nnc1-c1ccncc1	-13%	5%	-6.1%	1%	17%	1%	-8%	0%
Cc1c(C#N)c(NC(=O)CCl)n(Cc2ccccc2)c1C	?	?	nt	nt	-3%	11µM*	5%	0%
O=S(=O)(c1ccccc1)c1cnc(-c2ccccc2)nc1N1CCCC1	nt	nt	nt	nt	9%	-19%	-10%	-2%
COc1cc(O)c(C(CC(=O)N2CCCC(C)C2)c2ccc(N(C)C)cc2)c(OC)c1 (stereo not given)	nt	nt	nt	nt	11%	16%	-36%	-2%
CCc1c(C)sc(NC(=S)N2CCN(C(=O)C3CCCO3)CC2)c1C(=O)OC (stereo not given)	-20%	-1%	nt	nt	1%	-25%	-1%	-2%
Cc1cc(C(=O)NC(C)CCC(C)C)c2ccccc2n1 (stereo not given)	9%	-16%	nt	nt	-17%	-15%	nt	-2%
CCOC(=O)c1ccc2c(c1)N(CC(=O)Nc1ccc(C)cc1C)C(=O)c1ccccc1S2	nt	10%[46.1 µM]	-0.9%	9%	nt	-10%	nt	nt
CCCCCC(=O)Nc1ccc(C2C(=O)c3ccccc3C2=O)cc1	nt	nt	nt	nt	6%	54%[activator]	9%	3%
Cc1nccn1C(c1ccccc1)c1ccccc1	-22%[46.1 µM]	6%	nt	nt	-11%	-23%	nt	nt
COCCN(CC(=O)NCc1ccc(F)cc1)C(=O)CCC(=O)Nc1ccccn1	3%	1%	1.7%	-3%	8%	0%	1%	2%
COCCCNC(=O)c1nn(-c2ccc(C)cc2)nc1CO	9%[46.1 µM]	-6%[46.1 µM]	0.9%	7%	nt	11%	nt	nt
O=C(c1ccc(CN2CCc3ccccc3C2)cc1)N1CCN(c2ccc(F)cc2)CC1	?	-10%	nt	nt	1%	?	nt	nt
Cc1oc(-c2ccc(C(=O)NCc3ccccc3)cc2)nc1CN1CCc2ccccc21	nt	1%[46.1 µM]	-4.4%	-2%	nt	?	nt	nt
Nc1nc2ccc(Cl)cc2c2nc(-c3ccco3)nn12	?	?	5.9%&1.7%	8%&3%	nt	-1%&-14%	?	-6%
Cc1ccc(C)c(NC(=O)c2cccc(Oc3ccc([N+](=O)[O-])cc3Cl)c2)c1	nt	nt	-5.1%	?	-8%	-18%	24%	-3%
CCCN(CCC)C(=O)C[n+]1cccc(/C=N/O)c1	-5%	?	-1.8%	-4%	23%	-1%	-10%	-3%
Cc1cc(Nc2ccc(F)cc2F)nc(-n2nc(C)cc2C)n1	nt	-8%[46.1 µM]	3.1%	7%	nt	-8%	nt	nt
COc1cccc2sc(N(CCN(C)C)C(=O)c3ccc4c(c3)CCCC4)nc12	?	?	nt	nt	16%	0%	-13%	14%
O=C1NC(c2ccncc2)Nc2ccccc21 (stereo not given)	12%[46.1 µM]	23%	1.9%	-8%	-3%	-6%	9%	3%
COc1ccc(-c2cc(=O)oc3c(O)c(O)ccc23)cc1	?	-4%	nt	nt	13%	0%	-4%	4%
C=CCOC(=O)C1=C(C)NC(SCC)=C(C#N)C1c1ccc(Cl)cc1 (stereo not given)	nt	-7%	-12%	0%	0%	?	0%	-29%
COc1ccc(/C(C)=N/NC(=S)Nc2cc(C)ccc2C)cc1	nt	nt	nt	nt	16%	-14%	-2%	-3%
CC(Cc1cccs1)NC(=S)Nc1ccccc1 (stereo not given)	?	?	-0.8%	6%	3%	23%	-29%	10%
O=C(O)c1ccc2c(c1)C(=O)N(c1nccs1)C2=O	-1%[46.1 µM]	17%	nt	nt	6%	-7%	-6%	1%
COc1cccc(C(=O)COC(=O)C(C)N2C(=O)C3C4C=CC(C4)C3C2=O)c1 (stereo not given)	10%[46.1 µM]	-4%	2.2%	4%	-16%	-9%	-6%	8%
COc1cccc(C(=O)NN2C(=O)C3C4C=CC(O4)C3C2=O)c1 (stereo not given)	26%	9%	8.3%	-5%	-3%	8%	-3%	0%
CC(C)n1cc(CN2CCC(n3nccc3NC(=O)Cc3ccccc3)CC2)cn1	?	19%	nt	nt	20%	-15%	7%	1%
COc1cccc(N2CN(C3CCCCC3)CNC2=S)c1	3%[14.2 µM]	4%	nt	nt	-2%	20%	2%	1%
O=C(NCc1ccc2[nH]c3c(c2c1)CCCC3)c1ccc(S(=O)(=O)N2CCCCC2)cc1	-21%	-18%	-3.4%	?	-10%	?	5µM*	2%
COCCNC(=O)CN1C(=O)CC(C)(C)S(=O)(=O)c2ccccc21	nt	nt	0.6%	-4%	0%	-8%	?	-1%
CSc1ccccc1OCc1cc(C(=O)N(C)C2CCCc3ccccc32)no1 (stereo not given)	nt	nt	nt	nt	4%	44%[activator]	14%	10%
COc1ccc(CCNC(=O)C(C)SCC(=O)Nc2ccc(F)cc2)cc1 (stereo not given)	1%[46.1 µM]	-1%[46.1 µM]	nt	nt	-21%	11%	nt	8%
Cn1c(Cn2c(=O)sc3ccccc32)nnc1SCC(=O)N1CCCc2ccccc21	nt	nt	-4.2%	-3%	3%	-1%	-8%	7%
CN1C2CCC1CC(OC(=O)CCN1CCCC1)C2 (stereo not given)	-24%	-3%	3.1%	0%	9%	19%	2%	2%
COc1ccc(-c2cn3c(C)c(C(=O)Nc4cc(NC(C)=O)ccc4OC)sc3n2)cc1	?	-23%	-8.2%	-21%	5%	-2%	-4%	5%
CCCCC(=O)OCC(=O)Nc1ccc(OC(F)F)cc1	-3%[46.1 µM]	0%	0.6%	-12%	1%	-14%	-8%	-9%
COc1nc(-c2cnccn2)sc1C	?	-8%[46.1 µM]	nt	nt	-9%	0%	nt	1%
CCc1nn(CC(=O)NCCCN(CC)CC)c(=O)c2cc3occc3n12	-22%[46.1 µM]	-1%[46.1 µM]	-1.1%	17%	nt	-12%	nt	nt
Cc1sc2nc(SCC(=O)c3cccs3)n(Cc3ccco3)c(=O)c2c1C	-13%	?	0.6%	?	-5%	-11%	7%	-4%
CCn1cc(C(=O)N2CCN(c3ccc(C(C)=O)cc3)CC2)c2cc(OC)c(OC)cc2c1=O	9%&7%[46.1 µM]	18%&0%[46.1 µM]	-11%	-5%	?	-10%&7%	nt	-2%
CC(O)Cn1cnc2c1c(=O)n(C)c(=O)n2C (stereo not given)	6%&6%	-1%	1.8%	-4%	-12%	-23%	8%	2%
COc1ccc(C(C)(C)C)cc1S(=O)(=O)N1CCN(C)CC1	6%	15%	2.7%	1%	-2%	44%[activator]	-2%	-4%
CCCCCc1ccc(CC(=O)Nn2c(C)nc3ccccc3c2=O)cc1	1%	-19%	-16%	?	71%	nt	-32%	-37%
CCC(=O)NC(c1cccc([N+](=O)[O-])c1)c1c(O)ccc2ccccc12 (stereo not given)	?	?	nt	nt	-1%	-27%	1%	0%
O=C(c1ccc([N+](=O)[O-])cc1)N1CCN(c2ncccn2)CC1	7%[46.1 µM]	1%[46.1 µM]	nt	nt	4%	4%	nt	nt
Cc1ccc(C(C)C)c(Oc2cnccn2)c1	nt	nt	nt	nt	14%	-4%	-2%	1%
CN=C(Nc1ccc(Cl)cc1)c1cccc(C(F)(F)F)c1	10%	26%	2.5%	-2%	-6%	-20%	-8%	-3%
CCOc1cccc(CNCc2ccncc2)c1	nt	nt	nt	nt	3%	-20%	0%	0%
CN1C2CCC1CC(OC(c1ccccc1)c1ccc(Cl)cc1)C2 (stereo not given)	3.2µM*	nt	-2.3%	10%	nt	nt	-31%	nt
Cn1c(C(=O)N[C@@H](C(=O)O)c2ccccc2)cc2cc(F)ccc21	?	6%[46.1 µM]	nt	nt	9%	2%	1%	-2%
Cc1[nH]c2ccccc2c1/C=N/Nc1ccc([N+](=O)[O-])cc1	-19%	21%	-1.2%	25µM*	-24%	17%	5%	-57%
CCOC(=O)Nc1cc2c(c(N)n1)N=C(c1ccccc1)CN2	?	?	nt	nt	?	47%[activator]	nt	nt
COc1ccc(-n2nnnc2SCC(=O)Nc2cccc(NC(C)=O)c2)cc1OC	3%	0%	5.6%	-3%	-1%	nt	-1%	1%
Nn1c(SCc2ccccc2)nnc1-c1ccccn1	5%	5%	0.3%	-9%	-6%[3.69 µM]	3%	-8%	-1%
COc1ccc(CN2CCNC(=O)C2CC(=O)NCc2ccc(C)s2)c(OC)c1 (stereo not given)	nt	nt	nt	nt	16%	-19%	0%	0%
COc1ccc(/C=C/C(=O)NCC2COc3ccccc3O2)cc1OC (stereo not given)	?	-7%	nt	nt	-4%	-12%	-32%	-1%
Cc1nnc(SCC(=O)N2CCCCCC2)n(N)c1=O	17%[46.1 µM]	1%	nt	nt	3%	-7%	nt	3%
CC(C)C[C@H](NC(=O)c1nc[nH]c1C(=O)NCc1ccccc1)C(=O)OCc1ccccc1	nt	nt	nt	nt	29%	-18%	?	0%
O=C(Cn1nc(C(F)(F)F)c2c1CCCC2)Nc1cccc(Cl)c1	nt	20%[46.1 µM]	-13%	-7%	nt	?	nt	nt
Other results.
SMILES	MARV entry inh	LASV entry inh	Cruzain inh Det	Cruzain noTriton	RE007 growth inh	StopGo reporter	NS1 function inh	SARS PLP yeast
O=C(Nc1ccc(N2CCCC2)c(Cl)c1)c1ccccc1[N+](=O)[O-]	17%	14%	-5.7%	?	1%	0%	5%	17%
Cc1ccc(NC(=O)Cn2nnnc2-c2ccccc2N)cc1	-13%[46.1 µM]	5%[46.1 µM]	-3.7%	-7%	nt	10%	nt	nt
O=C(CN1CCCCCC1)NCc1ccccc1	0%[46.1 µM]	15%[46.1 µM]	nt	nt	-5%	2%	2%	-1%
O=[N+]([O-])c1cnc2ccccc2c1	?	-2%	-4.0%	-12%	-28%	15%	7%	14%
COc1ccc(C(C)NC(=O)c2ccccc2Br)cc1OC (stereo not given)	nt	nt	nt	nt	14%	5%	9%	3%
O=C(CN1C(=O)NC2(CCCC2)C1=O)Nc1ccc(Cl)c(C(F)(F)F)c1	5%[46.1 µM]	-17%[46.1 µM]	nt	nt	0%	3%	1%	2%
